Bioassay records from PubChem BioAssay.
D2 PAM: positive allosteric modulators of human D2 dopamine receptor. potentiation, % (concentration not given with the values). P14416. 360,000 compounds, 0.23% hits. DiscoveRx D2 beta-arrestin cells, luminescence, 90 min; 100% = 57 uM dopamine signal. AID 624464; active = potentiation of 50% or more; inconclusive = 30% to 50%; inactive = 30% or less;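 also: tested on top of an EC20 dose of dopamine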
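D2 cells co-treated with compound plus 50 nM dopamine (EC20) for 90 min at 37 deg C to detect potentiation. Beta-arrestin recruitment was read as enzyme-fragment luminescence after 1 h at ambient temperature. Full response was set by 57 uM dopamine.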
Sfp PPTase inh: blocks B. subtilis Sfp PPTase activity | Q9F4F7 | Biochemical Sfp PPTase activity, qHTS | Potency, µM, for inactives: max response, negative = inhibition, hits mostly inhibitors | 310,000 compounds, 3.5% hits | AID 1490; active = well fitted inhibition curve with a large enough effect; inconclusive = small, poorly fitted or top-dose-only effect, or another doubt; inactive = no such curve, though single readings can be large or run the other way;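 also: the enzyme is Sfp with the accession as filed and its product quenches rhodamine fluorescence; potency is read from the fitted curve at half-maximal effect; 0% = enzyme reaction without inhibitor and -100% = no enzyme wells; top concentration of the series not given in the record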
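Sfp 15 nM + cpd, 15 min RT; start w/ rhodamine-CoA 5 uM, BHQ-2-YbbR 12.5 uM (final); 50 mM Hepes pH 7.6, 10 mM MgCl2, 0.01% NP-40, 0.01% BSA; read 525/598 nm at 0 and 30 min.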
gsp antagonist: gsp mutant antagonism. 340,000 compounds, 0.4% hits. AID 624288. Potency, µM (titrated, usually from 76.9 µM), inactives show at the highest dose activity change, negative = inhibition, actives largely listed as inhibitors. gsp-mutant cells, cAMP HTRF, 30 min; control for the full effect not named in the record; active = falling curve of any shape with a large fitted effect; inconclusive = falling curve, mostly with a smaller effect; inactive = flat or rising curve; cell line not stated here;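 also: intracellular cAMP measured with PDE inhibitor Ro 20-1724 present during compound exposure; potency is read from the fitted curve at half-maximal effect; % is scaled to controls: 0 for no effect and ±100 for the full control effect; nearly all actives have a fitted effect of over 65% in size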
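HTRF cAMP measurement after 30 min RT detection following 30 min, 37C compound treatment alongside […] (added as 300 uM solution) in G418-selected cells seeded at 2000/well and grown 16–24 h.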
ClpP mod: qHTS Assay for Activators of ClpP | ATP-dependent Clp protease proteolytic subunit (Bacillus subtilis (strain 168)), P80244 | 340,000 compounds, 1.9% hits | Potency, µM (top dose mostly 57.5 µM), for inactives: at the highest dose activity change, negative = active | purified B. subtilis ClpP, FRET peptide cleavage, 20 min | AID 651965, 2013; active = well fitted falling curve with a large enough effect; inconclusive = small, poorly fitted or top-dose-only effect; inactive = no such curve, though single readings can be large or run the other way; also: potency is read from the fitted curve at half-maximal effect; the source files actives as falling curves though it sought activators and does not explain the sign; nearly all actives have a fitted effect of over 65% in size; many hits overshoot -100%
Target sequence (P80244 whole entry, looked up): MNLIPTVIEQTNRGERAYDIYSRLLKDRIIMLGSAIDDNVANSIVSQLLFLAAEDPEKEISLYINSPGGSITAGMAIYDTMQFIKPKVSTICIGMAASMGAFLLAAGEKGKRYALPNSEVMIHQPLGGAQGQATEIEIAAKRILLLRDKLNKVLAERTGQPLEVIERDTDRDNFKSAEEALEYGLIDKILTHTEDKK
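Purified B. subtilis ClpP, 10 microg/mL final in Tris/HCl pH8 with KCl, BSA, glycerol and Tween-20, cleaved an Abz/nitrotyrosine-quenched decapeptide. Fluorescence (ex 320, em 430) was read at 0 and 20 min at room temperature. Delta was normalized to 5.8 microM ADEP and DMSO/no-enzyme controls.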
Menin-MLL FL inh: displaces fluorescein MLL peptide from human menin | Fluorescence polarization, fluorescein-MLL peptide displacement from menin | FP activity change, % at 61.4 µM | 290,000 tested, under 10 active; inconclusive = falling polarisation curve, or a change in total fluorescence; inactive = total fluorescence flat and polarisation flat or rising; no compound was filed as active; the % refers to the polarisation; negative = inhibition;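 also: % of control where 0% means no effect; inhibitors lower the polarisation; unlabelled MLL peptide was the positive control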
gsp ag: gsp mutant agonism; 340,000 compounds, 0.13% hits; gsp mutant cells, cAMP HTRF, 30 min; control for the full effect not named in the record; AID 624287; Potency, µM (doses to about 76.9 µM), without a hit: at the highest dose activation (cAMP increase), hits mostly activators; active = well fitted activation curve with a large enough effect; inconclusive = small, poorly fitted or top-dose-only effect, or another doubt; inactive = no such curve, though single readings can be large or run the other way; cell line not stated here;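 also: phosphodiesterase inhibitor Ro 20-1724 added with compounds to block cAMP breakdown; potency is read from the fitted curve at half-maximal effect; nearly all actives have a fitted effect of over 60% in size; about a fifth of the inactives were tested at one dose only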
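Cells stably selected in G418 were plated at 2000/well, grown 16-24 hr, then given compounds in DMSO with the PDE inhibitor […] (300 uM solution added) for 30 min at 37C; cAMP was read by HTRF.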
TRPV1 potentiator: human TRPV1 potentiation; 320,000 compounds, 0.02% hits; TRPV1-expressing cells, Fluo-8 calcium influx, capsaicin EC20 potentiation; host cell line not named in the record; control for the full effect not named in the record; potentiation, % at 8.33 µM; Q8NER1; active means potentiation above 80%; inconclusive means 30% to 80%; inactive means below 30%; also: 0% is about no effect
Target sequence (Q8NER1 whole entry, looked up): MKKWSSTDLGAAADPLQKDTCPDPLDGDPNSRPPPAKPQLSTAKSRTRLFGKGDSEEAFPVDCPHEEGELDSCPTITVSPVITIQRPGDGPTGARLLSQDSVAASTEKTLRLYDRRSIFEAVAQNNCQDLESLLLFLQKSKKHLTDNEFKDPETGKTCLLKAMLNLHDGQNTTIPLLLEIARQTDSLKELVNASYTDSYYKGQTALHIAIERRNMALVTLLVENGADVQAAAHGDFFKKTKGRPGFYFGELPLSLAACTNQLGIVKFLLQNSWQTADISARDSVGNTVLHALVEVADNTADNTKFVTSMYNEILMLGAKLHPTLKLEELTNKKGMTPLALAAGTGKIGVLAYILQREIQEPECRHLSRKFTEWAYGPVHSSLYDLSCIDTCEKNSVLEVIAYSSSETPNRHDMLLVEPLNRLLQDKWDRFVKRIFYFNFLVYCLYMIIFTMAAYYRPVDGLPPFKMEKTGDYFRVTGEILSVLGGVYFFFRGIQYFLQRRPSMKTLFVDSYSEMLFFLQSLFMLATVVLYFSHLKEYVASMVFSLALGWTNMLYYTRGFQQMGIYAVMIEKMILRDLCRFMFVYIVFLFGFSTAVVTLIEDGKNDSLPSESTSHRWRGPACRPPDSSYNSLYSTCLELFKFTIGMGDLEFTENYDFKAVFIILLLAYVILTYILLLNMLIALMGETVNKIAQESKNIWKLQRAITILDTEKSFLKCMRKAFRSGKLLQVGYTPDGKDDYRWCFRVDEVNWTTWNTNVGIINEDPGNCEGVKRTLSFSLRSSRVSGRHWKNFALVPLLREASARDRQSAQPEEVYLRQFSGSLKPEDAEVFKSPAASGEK
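TRPV1-expressing cells were cultured overnight at 35.5C and loaded with Fluo-8 calcium dye for 40 to 90 min at room temperature. After a 10 s baseline, compound was added and calcium influx was read kinetically for 3 min (ex 480/em 520 nm).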
Starred values were filed as active, the others as inactive; ? = inconclusive; . = not tested or not shown; [ ] = another dose, or the depositor's remark.

SMILES	D2 PAM	Sfp PPTase inh	gsp antagonist	ClpP mod	Menin-MLL FL inh	gsp ag	TRPV1 potentiator
COc1ccc(NC(=O)CSc2n[nH]c(N)n2)c([N+](=O)[O-])c1	14.4	4.8%	9.1%	-0.7%	5.9	3.9%	?
Cc1ccc(S(=O)(=O)NC2CC(C)(C)NC(C)(C)C2)cc1C	-1.9	10.2%	5.5%	.	1.1	-10.9%	3.6
O=c1oc2ccccc2c(O)c1Sc1c(O)c2ccccc2oc1=O	8.6	.	4.2%	.	.	?	.
O=c1cc(CO)oc(CN2CCN(c3ccccc3F)CC2)c1O	-10.4	3.3%	-11.3%	2.5%	1.1	1.4%	-7.7
O=C(NCc1ccccn1)Nc1ccc(F)c(Cl)c1	-5.0	16.3%	6.8%	0.0%	1.7	?	-6.7
CCOC(=O)C1C(=O)C(=O)N(C(C)C)C1C(=O)OCC (stereo unspecified)	-2.6	.	4.8%	.	.	5.5%	.
CCC(=O)N1CCc2cc(S(=O)(=O)NCCC(=O)N3CC=C(c4ccccc4)CC3)ccc21	.	12.6%	.	.	-4.4	.	18.6
O=C(O)CC(CC(=O)Nc1ccc(Oc2ccccc2)cc1)c1ccccc1 (stereo unspecified)	-3.3	19.3%	-11.4%	.	-1.6	4.6%[15.4 µM]	-14.2
CC(C)(NC(=O)c1ccccc1)c1nc2ccccc2s1	-0.3	.	4.6%	-0.7%	.	.	1.8
Cc1nnc(SCC(=O)N(C)C2CCCCC2)n1C	-3.2	.	-4.2%	-0.8%	.	-58.7%[inhibitor]	-14.4
O=C(COC(=O)CCC(=O)c1cccs1)Nc1cc(S(=O)(=O)N2CCOCC2)ccc1Cl	-0.2	8.1%	-6.4%	0.0%	0.6	16.4%	21.4
CCCCN(C(=O)C1=COCCO1)c1c(N)n(CCCC)c(=O)[nH]c1=O	8.6	.	7.6%	-12.6%	.	-77.0%[inhibitor]	-5.8
Cc1[nH][nH]c(=O)c1N=Nc1ccc(F)cc1	-11.1	-7.6%	0.7%	-2.7%	-12.7	?	-16.3
Cc1ccccc1OCCn1cc(C(=S)N2CCCC2)c2ccccc21	-7.2	.	-20.5%	3.5%	.	-34.8%[inhibitor]	.
CCOc1ccc(CN(C)CC(=O)c2c(N)n(Cc3ccccc3)c(=O)n(CC)c2=O)cc1OC	-11.5	-2.3%	1.8%	1.1%	-0.6	0.6%	-5.2
COc1ccc(Cl)cc1NC(=O)CN(C)C(=O)c1ccc2c(c1)OCCO2	-24.6	.	4.3%	1.7%	.	0.8%	-17.0
O=C(CNc1cccc(S(=O)(=O)N2CCOCC2)c1)Nc1ccc(C(F)(F)F)cc1	3.9	.	?	-1.4%	.	-30.0%	-5.5
COc1cc(C(=S)N2CCCC2)ccc1OC(=O)c1ccc(Cl)cc1[N+](=O)[O-]	16.3	17.6%	7.7%	1.4%	-1.5	4.7%	9.0
O=C1Nc2ccc([N+](=O)[O-])cc2OC1CCN1CCOCC1 (stereo unspecified)	-3.8	25.3%	-2.6%	.	-2.5	-13.3%	1.0
NC(=O)c1ccc(N2CCCCCC2)c([N+](=O)[O-])c1	0.1	11.3%	6.2%	.	-0.5	?	15.4
CCC1Oc2ccc(C)cc2N(CC(=O)NCCCN2CCCCC2C)C1=O (stereo unspecified)	-22.0	9.6%	15.9%	-0.4%	-9.4	?	1.7
Cc1cccc(NC(=S)NNC(=O)c2csc3c2CCC(C)C3)c1 (stereo unspecified)	-19.6	10.4%	-24.4%	3.4%	-1.5	6.2%	-0.9
COC(=O)/C=C/c1cnc[nH]1	-6.0	0.5%	5.3%	0.1%	-7.0	-21.4%	-9.4
Nc1nnc(SCC(=O)c2ccc([N+](=O)[O-])cc2)s1	5.0	4.1%	-2.9%	1.9%	1.0	-9.7%	3.9
Cc1c2c(n3c(nc4ccccc43)c1C#N)N(CCCN(C)C)CC2	-4.7	5.6%	-12.4%	-0.9%	-1.0	13.2%[15.4 µM]	-10.8

Exported bar-delimited: 2 of the compounds above.
structure | D2 PAM | Sfp PPTase inh | gsp antagonist | ClpP mod | Menin-MLL FL inh | gsp ag | TRPV1 potentiator
NC(=O)c1ccc(N2CCCCCC2)c([N+](=O)[O-])c1 | 0.1 | 11.3% | 6.2% | . | -0.5 | ? | 15.4
CCC1Oc2ccc(C)cc2N(CC(=O)NCCCN2CCCCC2C)C1=O (stereo unspecified) | -22.0 | 9.6% | 15.9% | -0.4% | -9.4 | ? | 1.7

Carrying on.
SMILES	D2 PAM	Sfp PPTase inh	gsp antagonist	ClpP mod	Menin-MLL FL inh	gsp ag	TRPV1 potentiator
CCOC(=O)C1(CC/C(C)=N\NC(N)=O)CC(C)(C)OC1=O (stereo unspecified)	-4.5	9.0%	10.4%	0.9%	4.4	-10.2%[15.4 µM]	17.4
Cc1ccc(S(=O)(=O)CCC(=O)OCc2ccccc2)cc1	-0.8	10.9%	-3.7%	-1.9%	0.3	12.8%	-4.1
CCn1c(=O)[nH]c(=O)c2c(N)c(C(=O)c3ccccc3OC)sc21	-4.4	-2.2%	9.7%	-5.2%	-0.5	1.3%	0.7
COc1cc(/C=C/C(=O)Nc2ccccc2C(F)(F)F)cc(OC)c1OC	.	-2.3%	.	.	-0.8	.	?
COc1cccc(-c2nnc(NC(C)=O)o2)c1	-7.9	-25.9%	4.9%	?	0.2	?	27.3
Cc1nn(CC(=O)N(C)Cc2ccccc2)c(=O)c2cccn12	-0.7	13.7%	5.7%	2.1%	.	-10.0%	-13.0
CCC(C)(C)NC(=O)CN(Cc1ccc(F)cc1)C(=O)CCC(=O)Nc1ccccn1	-32.2	10.0%	-7.6%	-2.1%	2.4	8.8%[15.4 µM]	-7.1
Cc1ccc(S(=O)(=O)N(C)CC(=O)NCCCn2ccnc2)cc1	1.1	7.5%	17.0%	.	4.5	10.8%	7.9
O=[N+]([O-])c1ccc(/C=C/c2nc3ccc([N+](=O)[O-])cc3[nH]2)cc1	-7.7	7.0%	3.7%	0.8%	1.2	12.3%	?
COc1cccc(NC(=O)CN(C)CC(=O)c2c(C)[nH]c3ccccc23)c1	-2.7	.	-10.0%	-1.5%	.	0.9%	18.4
CC1CC(C)CN(C(=O)/C(=C\c2ccccc2)c2ccccc2)C1 (stereo unspecified)	-14.0	-14.4%	-25.5%	-0.8%	6.1	-1.1%	5.7
C=CCNC(=O)C1CCN(C(=O)c2ccc(-c3ccccc3)cc2)CC1	-8.5	-0.1%	4.5%	0.2%	0.2	?	-7.9
COCCN(C(=O)c1cc2c(s1)CCCCC2)c1c(N)n(Cc2ccccc2)c(=O)[nH]c1=O	12.1	.	4.4%	1.3%	.	-1.2%[15.4 µM]	3.6
CCOC(=O)/C(=C\C=C1/Sc2ccccc2N1CC)C(C)=O	-7.8	-3.4%	-28.0%	0.2%	?	0.2%[15.4 µM]	-11.9
Cn1c(=O)c2c(nc(N/N=C/c3cccs3)n2C)n(C)c1=O	3.0	-6.2%	?	.	3.7	?	8.4
COc1cccc(O[C@@H]2O[C@@H]3COC(C)(C)O[C@H]3[C@H](O)[C@H]2NC(C)=O)c1	2.7	6.2%	1.7%	0.8%	-0.2	-14.4%	23.1
CCc1ccc(C(C)NC(=O)c2cccs2)cc1 (stereo unspecified)	-3.5	.	1.5%	.	.	?	.
COc1ccc(C(=O)C[n+]2cccc3cc(C)ccc32)cc1	-15.7	1.4%	2.7%	.	16.1	-44.1%	6.5
CSc1cccc(NC(=O)c2nnn(CC(=O)Nc3cc(C)cc(C)c3)c2N)c1	-8.4	13.2%	16.0%	3.8%	1.8	16.5%	-0.1
COc1ccc(N2CC(C(=O)OCC(=O)c3ccc(C)cc3)CC2=O)cc1 (stereo unspecified)	-7.2	4.0%	-23.5%	-2.3%	5.0	-14.3%	5.7
COc1ccc(CN=C2NC(=O)CC(C(=O)Nc3ccccc3C)S2)cc1 (stereo unspecified)	-5.1	7.0%	0.3%	.	1.2	-64.4%[15.4 µM]	-1.5
CC(C)(C)OC(=O)N1CCC[C@H]1C(=O)NCc1ccc(Cl)cc1Cl	-5.5	14.9%	-12.4%	-2.9%	1.9	-1.2%[15.4 µM]	19.8
Cc1ccc(NC(=O)c2cccc(S(=O)(=O)Nc3c(C)n(C)n(-c4ccccc4)c3=O)c2)cc1C	-0.5	.	-31.7%	-1.6%	.	?	.
COc1cc(OC)cc(C(=O)N2CCCC(c3nc(-c4ccc(C)o4)no3)C2)c1 (stereo unspecified)	2.5	10.6%	-12.7%	.	5.3	2.1%[15.4 µM]	6.8
O=C(C=C1SCCS1)/C=C/c1ccco1	-3.2	44.7µM*	-4.8%	-2.4%	?	12.8%	.
CS(=O)(=O)NN1C(=O)c2ccccc2NC1c1cccc2cccnc12 (stereo unspecified)	0.1	9.1%	?	.	4.8	-2.9%[15.4 µM]	2.8
CCOC(=O)C1(CCc2ccccc2)CCN(C(=O)C(C)n2cncn2)CC1 (stereo unspecified)	-3.7	?	4.6%	.	-0.2	-24.9%	-1.0
O=C(OCc1cccc([N+](=O)[O-])c1)c1cccnc1Cl	-5.3	4.9%	-11.2%	.	.	?	4.5

One compound at a time, from the list above. Order of screens: D2 PAM, Sfp PPTase inh, gsp antagonist, ClpP mod, Menin-MLL FL inh, gsp ag, TRPV1 potentiator
CC1CC(C)CN(C(=O)/C(=C\c2ccccc2)c2ccccc2)C1 (stereo unspecified) in the list: -14.0, -14.4%, -25.5%, -0.8%, 6.1, -1.1%, 5.7
CCOC(=O)/C(=C\C=C1/Sc2ccccc2N1CC)C(C)=O in the list: -7.8, -3.4%, -28.0%, 0.2%, ?, 0.2%[15.4 µM], -11.9
Cn1c(=O)c2c(nc(N/N=C/c3cccs3)n2C)n(C)c1=O in the list: 3.0, -6.2%, ?, ., 3.7, ?, 8.4
CC(C)(NC(=O)c1ccccc1)c1nc2ccccc2s1 in the list: -0.3, ., 4.6%, -0.7%, ., ., 1.8
Cc1ccc(S(=O)(=O)CCC(=O)OCc2ccccc2)cc1 in the list: -0.8, 10.9%, -3.7%, -1.9%, 0.3, 12.8%, -4.1
